Ab BasE inh – inhibitors of Acinetobacter baumannii siderophore enzyme BasE | purified BasE, fluorescence polarization binding displacement | inhibition, % (concentration not given with the values) | actives 0.1% (n = 84,000) | AID 485350;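 active = both replicates above 25% with normal brightness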;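 also: 0% = negative plate control signal and 100% = positive plate control signal; stock transfer was 100 nL into about 30 µL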
KSHV LANA nucl – inhibitors of KSHV LANA binding to nucleosomes | FITC-LANA1-23 / chicken nucleosome fluorescence polarization; active compounds read low | z-score (test concentration not listed) | actives 0.3% (n = 51,000);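 active = both repeat wells score below -2 in polarization z-score versus plate sample wells, excluding overly bright wells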;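 also: 100 nL library stock added to about 30 µL; numbers are from one replicate; some results filed as inactive read as strong as hits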
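Assay system: FITC-LANA peptide and chicken nucleosomes; input: 240 nM purified chicken nucleosomes (480 nM peptide binding sites), final; also added: 50 nM FITC-LANA1-23 probe; medium: TEN-BT buffer, pH 7.5; doses: pin-transferred compound, 100 nL; times: 10–45 min, room temperature; technique: fluorescence polarization; replication: duplicates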
The depositor's hits bear a star; / = not tested or not shown; & = joins results of further samples. This is a subset (hit frequency here may not be typical).

SMILES | Ab BasE inh | KSHV LANA nucl
CCCN1CCC(NCC(C)c2ccccc2)CC1 (configuration not stated) | -2.0 | 0.0055
NNc1cccc2cccnc12 | / | 0.2
Cc1nn(-c2ccccc2)c(C)c1/C=C1\CCCC2=C1OC(N)=C(C#N)C2c1c(C)nn(-c2ccccc2)c1C (configuration not stated) | -5.8 | 1.3
Cc1ccc(NC(=O)CSc2nnc(N3C(=O)c4ccccc4C3=O)s2)c(C)c1 | 4.6 | /
CCN1C(=O)c2cccc3c(NC(=O)c4cccc(N5C(=O)CCC5=O)c4)ccc1c23 | -5.9 | 0.26
CCCNC(=O)c1c(C)[nH]c(C(=O)OCC)c1C | -0.2 | -0.63
CC(C)CN(CC(C)C)S(=O)(=O)Cc1ccccc1 | -4.2 | 1.4
N#Cc1cc(O)c(-n2nnc3ccccc32)cc1C#N | 2.3 | -0.72
Oc1ccc2ccccc2c1CN1CCc2ccccc2C1 | 1.6 | /
Cc1cccc(N2C(=O)C3C(C4=C(O)c5ccccc5C4=O)=NC(c4ccccn4)C3C2=O)c1 (configuration not stated) | 4.7 | -0.43
O=C(COc1ccc(S(=O)(=O)NCc2ccccc2)cc1Cl)N1CCOCC1 | -1.3 | -0.41
CCOCc1cnc(C)nc1NCC(=O)c1c(C)[nH]c2ccc(OC)cc12 | -5.8 | 1.2
CC(C)(O)C#Cc1ccc(C#N)cc1 | 3.2 | -1.5
CC(=O)N1CCN(c2ccc(Oc3ncnc4sccc34)cc2)CC1 | 0.4 | /
Cc1ccc(C)n1-c1ccc(C(=O)O)c(C(=O)O)c1 | 2.4 | -0.87
O=S(=O)(Nc1ccc2cn[nH]c2c1)c1ccccc1 | 2.9 | /
CN(C)c1cccc(C(=O)NCc2ccccc2)c1 | 1.0 | /
CN(c1nnc(NC(=O)NCc2ccc(F)cc2)s1)C1CCCCC1 | -1.2 | 0.27
N#Cc1ccccc1OCC(=O)Nc1ccc2c(c1)OCCCO2 | 1.6 | /
C=CCn1c(CNC(=O)c2ccc(OC)c(OC)c2)nnc1SCC(=O)Nc1nc(C)cs1 | -0.4 | 0.12
COc1ccc2oc(C(=O)NCCNc3ncc(C(F)(F)F)cc3Cl)c(C)c2c1 | 1.1 | /
Cc1ccc(C2=NNC(=O)C(c3cn(CCC#N)c4ccccc34)C2)cc1 (configuration not stated) | -2.4 | 0.73
Cc1ccc2oc(=O)cc(CN3CCOCC3)c2c1 | / | 0.33
O=C1C2ON(c3ccccc3)C(c3ccncc3)C2C(=O)N1c1ccc(N2CCOCC2)cc1 (configuration not stated) | 0.9 | -1.8
Cc1ccc(C(C)C)c(OCC(=O)N=Nc2c(O)n(CN3CCOCC3)c3ccccc23)c1 | -0.2 | /
CC(C)NC(=S)N1CCN(Cc2c(Cl)cccc2Cl)CC1 | -0.9 | 2
Cn1c(N)nc(N)c(NC(=O)COc2ccc(Cl)cc2Br)c1=O | 9.9 | /
O=C(O)c1ccc(Nc2ncnc3c2cnn3-c2ccccc2)cc1 | 0.4 | /
C(=C1/CCCC2=C1Nc1ncnn1C2c1ccccc1)/c1ccccc1 (configuration not stated) | 3.5 | /
Cc1ccc(S(=O)(=O)N2CC(C)C(=O)CC2C)cc1 (configuration not stated) | -0.7 | 1.3
CCCc1ccc(CC2(CC(=O)OCC)C(=O)c3ccccc3C2=O)cc1 | -0.5 | /
COC(=O)c1sc(NC(=S)Nc2ccn(C)n2)c(C(=O)OC)c1C | 2.9 | 0.39
CCN(CC)CC(=O)Nc1c(C#N)cnn1-c1ccccc1 | 0.5 | 0.044
Cc1nnc(SC(C(=O)NC(N)=O)c2ccccc2)n1C1CCCCC1 (configuration not stated) | -1.1 | /
Fc1ccccc1Cc1nnc2n1N=C(c1ccc(Cl)cc1)CS2 | -0.4 | /
O=C(Nc1ccc(Cl)cc1)Nc1cc(C(=O)NC2CC2)ccc1N1CC2CC(C1)c1cccc(=O)n1C2 (configuration not stated) | 1.3 | 0.049
CN(C)c1ccc(C=Nc2cc(Br)c3c(c2)OCCO3)cc1 | 2.7 | /
O=C1CN(Cc2nc3cc(Cl)ccc3c(=O)[nH]2)CCN1 | -0.5 | /
CCOC(=O)N1CCC(NC(=O)C(CC(C)C)NC(=O)C2CCC(C)CC2)CC1 (configuration not stated) | 1.5 | -0.5
NNc1nc(-c2ccccc2)c2cc(Cl)ccc2n1 | 1.6 | /
COc1cc(/C=N/NC(=O)Cc2csc(C)n2)cc(OC)c1 | 0.3 | /
Cn1c2ccccc2c2nnc(SCc3ccccc3)nc21 | 0.7 | 0.59
O=c1c2ccccc2nnn1CSc1nnc(Cc2cccs2)n1C1CCCCC1 | 0.5 | /
O=C(/C=C/c1ccccc1)N1CCN(c2ncccn2)CC1 | 1.1 | /
CN1CCN(CCCNC(=O)c2ccc3c(c2)N(Cc2ccc(F)cc2)CCS3)CC1 | -1.4 | -0.61
CCN(c1ccccc1)S(=O)(=O)c1ccc(-c2n[nH]c(C)c2C)s1 | 1.4 | 0.87
Cc1cccc(CSCc2nnc(NC(=O)/C=C/c3ccccc3)s2)c1 | 2.8 | /
FC(F)(F)C(Oc1nc(N2CCCCC2)nc(N2CCCCC2)n1)C(F)(F)F | -1.7 | -0.27
CC(Nc1ccc(Br)cc1)C(=O)NC(=O)NC1CCCCC1 (configuration not stated) | 2.2 | /
CN(CC12CC3CC(CC(C3)C1)C2)C(=O)c1ccco1 | 3.6 | -0.17
Cc1cnc(-c2ccc(Br)cc2)nc1 | 2.1 | -0.11
CC(C)c1ccc(/C=C/C(=O)NC(=S)Nc2ccc(C(=O)O)cc2)cc1 | 4.5 | /
c1ccc(-c2c(-c3ccccc3)n(Cc3ccco3)c3ncn4nc(-c5ccccn5)nc4c23)cc1 | 3.7 | 0.085
O=C1CC2NCCc3cccc1c32 (configuration not stated) | -0.1 | -0.31
O=C(Cc1nc2ccccc2[nH]c1=O)c1ccc(Cl)cc1 | -1.7 | /
Cc1ccc(NC(=O)c2cc3cc(OC(F)(F)F)ccc3[nH]2)cc1 | 1.6 | /
CC1CCCCN1C(=S)NC1CCCC1 (configuration not stated) | 2.8 | 0.63
Cn1c(C(C#N)C(=O)CC23CC4CC(CC(C4)C2)C3)nc2ccccc21 (configuration not stated) | 1.8 | /
COC(=O)c1cn(-c2ccccc2)nc1N | 1.2 | 0.17
Cc1sc2nc[nH]c(=S)c2c1C | 0.4&0.8 | 0.12
Next section.
SMILES | Ab BasE inh | KSHV LANA nucl
Cc1sc2ncn(CC(=O)Nc3nc4ccccc4s3)c(=O)c2c1S(=O)(=O)N1CC(C)CC(C)C1 (configuration not stated) | 0.5 | -0.066
Cc1[nH]nc(-c2ccc(O)cc2O)c1Oc1ccc(C(C)C)cc1 | 1.9 | /
CSc1cccc(NC(=O)Cn2nc(SC)c(S(=O)(=O)c3ccccc3)c2N)c1 | 0.9 | 0.3
CC1C(=O)N2CCCc3cc(S(=O)(=O)NCc4ccc(F)cc4)cc1c32 (configuration not stated) | -0.8 | -1.4
Cc1ccc(S(=O)(=O)NNC2CS(=O)(=O)c3ccccc32)cc1 (configuration not stated) | 2.1 | -1.5
Cc1nnsc1-c1n[nH]c(=S)n1C1CC1 | 2.3 | /
Cc1ccc2cc(C#N)c(SCC(=O)NCc3ccco3)nc2c1 | 0.6 | 0.29
Cc1cc(C)cc(NC(=O)NCc2csc(-c3cccs3)n2)c1 | 0.6 | /
CCOC(=O)/C=C1\SCC(=O)N1CC(=O)OCC | 2.8 | /
CC(C)Oc1ccc2c(C(F)(F)F)cc(=O)oc2c1 | 12 | /
CCS(=O)(=O)c1ccccc1C(=O)Nc1sccc1C(=O)NC | 2.3 | 0.16
Cc1ccc(CSc2nc(N)cc(N)n2)cc1 | -4.9 | 1.4
C=CCN1C(=O)C2(C(C#N)=C(N)Oc3c2c(=O)oc2ccccc32)c2ccccc21 (configuration not stated) | 1.9 | /
O=C(Oc1cccc2cccnc12)N1c2ccccc2Sc2ccccc21 | 2.0 | /
COC(=O)C1C(c2ccc(Cl)cc2)C(C(=O)OC)S(=O)(=O)CS1(=O)=O (configuration not stated) | 3.1 | -0.74

One compound at a time, as listed above. Values in the order: Ab BasE inh | KSHV LANA nucl
CCN(c1ccccc1)S(=O)(=O)c1ccc(-c2n[nH]c(C)c2C)s1 in the list: 1.4 | 0.87
O=C(COc1ccc(S(=O)(=O)NCc2ccccc2)cc1Cl)N1CCOCC1 in the list: -1.3 | -0.41
FC(F)(F)C(Oc1nc(N2CCCCC2)nc(N2CCCCC2)n1)C(F)(F)F in the list: -1.7 | -0.27
NNc1cccc2cccnc12 in the list: / | 0.2
CC(=O)N1CCN(c2ccc(Oc3ncnc4sccc34)cc2)CC1 in the list: 0.4 | /

Three compounds drawn at random from those above, as already listed:
SMILES | Ab BasE inh | KSHV LANA nucl
O=C1CN(Cc2nc3cc(Cl)ccc3c(=O)[nH]2)CCN1 | -0.5 | /
Cc1ccc(C)n1-c1ccc(C(=O)O)c(C(=O)O)c1 | 2.4 | -0.87
Cc1nnc(SC(C(=O)NC(N)=O)c2ccccc2)n1C1CCCCC1 (configuration not stated) | -1.1 | /

Going on with the list.
SMILES | Ab BasE inh | KSHV LANA nucl
NC(=O)c1nnc2cc(-c3ccccc3)nn2c1N | -0.6 | /
Cc1ccc(N=C2C(=O)Nc3ccccc32)c(C)c1 | -0.5 | /
O=C(Nc1ccccc1)c1cnn(-c2ccccc2)c1C1CCNCC1 | 1.8 | 0.76
S=c1nc2c(n[nH]1)[nH]c1ccccc12 | 3.4 | 0.25
COc1ccccc1COc1ncnc2c1cnn2-c1ccccc1 | -1.0 | /
O=C(Cn1nnc(-c2cccc(C(F)(F)F)c2)n1)NC1CC1 | 1.8 | /
CCS(=O)(=O)N1CCN(CC2CC=CCC2)CC1 (configuration not stated) | -1.9 | /
COC(=O)CNC(c1ccccc1)c1cc(Br)ccc1NC(=O)CCN1CCOCC1 (configuration not stated) | 2.9 | /
CN1c2ccccc2C(=O)/C(=C\Nc2cc(C(F)(F)F)cc(C(F)(F)F)c2)S1(=O)=O | -4.0 | /
O=C(Nc1ccc(N2CCOCC2)cc1)c1ccc2c(=O)[nH][nH]c(=O)c2c1 | 0.5 | /
Cc1nc(SCCCCC#N)c2ccccc2n1 | -2.0 | /
CCn1c(=O)[nH]c(=O)c2c(C(=O)OC)cc(-c3ccc(C)cc3)nc21 | -0.1 | /
CCN(CC)C(=S)SCc1cn2ccccc2n1 | -0.8 | /
CCc1nnc(NC(=O)CCCn2c(=O)oc3ccccc32)s1 | 2.1 | /
COc1ccc(CC(=O)NCCn2ccc3ccccc32)cc1 | -2.7 | 1.3
N#Cc1ccc(CSc2nncn2-c2ccccc2)cc1 | -5.6 | /
Cc1noc(C)c1COc1ccc(CC(=O)NCCc2ccccn2)cc1 | 0.6 | /
O=C(NCC(c1ccco1)N1CCCCC1)c1cc(C(F)(F)F)cc(C(F)(F)F)c1 (configuration not stated) | 0.4 | /
Brc1ccc(Oc2ncnc3c2oc2ccccc23)cc1 | 1.4 | /
CCOc1c(CNCc2ccc3c(c2)OCO3)cccc1OC | 3.0 | 0.057
N#Cc1ccc(-c2cccnc2)n(CC(=O)N2CCOCC2)c1=O | -3.2 | 2.7
O=C(Nc1ccc(N2CCCCC2)cc1)Nc1cccc(Cl)c1Cl | / | -0.48
CC1CCCCN1C(=O)COCc1cc(-c2ccc3c(c2)OCO3)on1 (configuration not stated) | -2.8 | 0.86
CCc1[nH]nc2c1C(c1cc(OC)c(OC(C)=O)c(OC)c1)C(C#N)=C(N)O2 (configuration not stated) | -4.5 | -0.32
Cn1c(O)c(N=NC(=O)CCN2CCN(Cc3ccc4c(c3)OCO4)CC2)c2ccccc21 | 0.3 | /
Cc1cc(C)cc(NC(=O)Nc2ccc(N(C)C)cc2)c1 | / | -1.2
COC(=O)c1ccc(-c2c3c(nc4nc(N)[nH]c(=O)c24)-c2ccccc2C3=O)cc1 | 20 | 0.29
c1coc(C2NCCS2)c1 (configuration not stated) | 0.0 | 0.26
CSc1scc2c1-c1nn(C(=O)c3cccc(C(F)(F)F)c3)cc1CC2 | -1.5 | /
CCc1c(O)nc(SCC(=O)Nc2nnc(SCc3ccccc3)s2)[nH]c1=O | 3.3 | -0.42
Cn1c(=NC(=O)C2Cc3ccccc3CN2C(=O)c2ccco2)sc2ccccc21 (configuration not stated) | 2.3 | /
CN(C(=O)C(C)(C)Oc1ccc(Cl)cc1)c1ccccc1 | -5.4 | /
FC(F)(F)c1ccc(NCc2ccco2)nc1 | -0.1 | -0.51
O=C(OCc1nc(-c2ccccc2)oc1COC(=O)c1ccco1)c1ccco1 | 1.2 | -0.17
CCOc1ccc2nc(NCCCNC(=O)C3CCCO3)c(C#N)cc2c1 (configuration not stated) | 2.2 | -1.4
C[C@H](NC(N)=O)C(=O)Nc1ccccc1 | 0.7 | /
CCCc1c(O)nc(SCC(=O)N2CCCCC2)[nH]c1=O | 1.0 | 0.61
CCc1cccc(CC)c1NC(=O)Cn1nc(C(F)(F)F)nc1N | 0.9 | /
Cc1cccn2c(=O)c(C=Nc3ccccc3)c(NCCO)nc12 | 2.5 | /
COc1ccc(/C=C/C(=O)N[C@@H](C)C(=O)O)cc1 | 1.4 | /
Fc1ccc(-n2c(C34CC5CC(CC(C5)C3)C4)n[nH]c2=S)cc1 | 2.0 | /
Cc1ccccc1Nc1ccc2noc3c2c1C(=O)c1ccccc1-3 | 3.8 | -0.089

3 neighbouring entries already listed, for reference:
SMILES | Ab BasE inh | KSHV LANA nucl
COc1ccc(/C=C/C(=O)N[C@@H](C)C(=O)O)cc1 | 1.4 | /
Fc1ccc(-n2c(C34CC5CC(CC(C5)C3)C4)n[nH]c2=S)cc1 | 2.0 | /
Cc1ccccc1Nc1ccc2noc3c2c1C(=O)c1ccccc1-3 | 3.8 | -0.089

Screening results (PubChem)
